High-throughput results: PubChem, Fisher Drug Discovery Resource Center
NPYLR7 agonist – mosquito NPYLR7 agonism | HEK293T NPYLR7/Galpha15, GCaMP6s calcium fluorescence | activation, % at 10 µM | 0.15% of 270,000 active | AID 1259423; in the data active means activation above about 40%;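 further: 0% = vehicle and 100% = reference agonist at the receptor; some compounds past the cut are filed as inactive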
NPYLR7 agonist max-min – also measured in NPYLR7 agonist; calls as there; activation, %; measured here: Max-Min RFU normalised activation; some inactives read as strong as hits;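 span of the calcium signal over five minutes; 0% = vehicle and 100% = native peptide agonist; compound fluorescence can raise it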
An asterisk follows results filed as active; & = joins results of further samples. These rows are one share of the data; rates above refer to the full screens.

Compound,NPYLR7 agonist,NPYLR7 agonist max-min
CCOC(=O)C1(CCCc2ccccc2)CCN(C(=O)c2cccnc2SC)CC1,4,-2
N#Cc1cn(C2CC2)c(=O)n(CC(O)c2ccc(OC(F)F)cc2)c1=O (stereo not drawn),18,20
COc1cccc2cc(C(N)=O)c(=Nc3ccc(C(N)=O)cc3)oc12,12,8
Cc1n[nH]c(C)c1S(=O)(=O)N(C)Cc1ccc(F)cc1F,-1,0
COc1ccc(OC)c(C2SCCN2C(=O)Nc2ccc(Cl)cc2Cl)c1 (stereo not drawn),19,21
Cc1cc(C)c2c(c1C(=O)NCc1ccc(NC(=O)NC(C)C)cc1)CC(C)(C)C2=O,5,6
CN(CC(=O)N1CCCC1)C(=O)c1ccccc1Nc1ccccc1,-1,-1
Cc1ccsc1-c1nccn1CCc1nc(-c2cccnc2)n[nH]1,-2,-5

(cont.)
Compound,NPYLR7 agonist,NPYLR7 agonist max-min
CCOC(=O)c1nn(-c2ccc(C)cc2)c(=O)c2c(NC(=O)Cc3ccc(OCC)cc3)scc12,0,-2
O=C(CCC1CCCC1)N1CCN(c2nc3nccc(-c4ccc(Cl)c(Cl)c4)n3n2)CC1,4,-1
Cc1ccc(C)c(N2CC(O)(c3cccs3)[N+]3=C2CCCCC3)c1 (stereo not drawn),-3,-2
CC(C)(C)c1ccc(C(=O)Nc2ccccc2S(C)(=O)=O)cc1,3,7
Cc1c(C(=O)NCc2ccc(C(C)C)cc2)sc(=O)n1Cc1ccc(S(=O)(=O)N(C)C)cc1,-7,-3
COc1ccc(CN(Cc2nc(C(=O)NCCN(C)C)co2)C(C)C)cc1,-10,7
Cc1nc(SCc2c(C)noc2C)c2c3c(sc2n1)CCC3,1,-4
Cc1cn2c3c(=O)n(C)c(=O)n(C)c3nc2n1-c1ccc(OCCN2CCCCC2)cc1,4,-3

Next entries follow:
Compound,NPYLR7 agonist,NPYLR7 agonist max-min
O=[N+]([O-])c1cccc(C(F)(F)F)c1O,7,5
Cn1c(SCC(=O)C(C)(C)C)nnc1C1COc2ccccc2O1 (stereo not drawn),11,8
Cc1nccn1CCc1nc2cc(NC(=O)Nc3ccccc3)ccc2n1C,-6,-6
COC(=O)c1ccc(Nc2nnc(Cc3ccccc3)c(=O)[nH]2)cc1,-4,-4
Cc1nc2nc(CN3CCCC3c3nc4ccc(F)cc4[nH]3)cc(=O)n2[nH]1 (stereo not drawn),1,-8
CN(C)CCCN(C(=O)c1ccco1)c1nc2c(F)cc(F)cc2s1,9,7
COc1ccccc1-c1cc(C(=O)N2CCc3ccccc3C2)n2nc(-c3ccc(Cl)cc3)cc2n1,19,16
O=C1NCCN=C1Cc1ccc2ccccc2n1,-3,3

Remaining list, next part
Compound,NPYLR7 agonist,NPYLR7 agonist max-min
O=C(O)c1cccc(-c2csc(C(O)(c3ccccc3)C(F)(F)F)n2)c1 (stereo not drawn),5,1
COc1c(C)cnc(CN(C)C(=O)c2cc(CC(C)C)no2)c1C,-9,-10
C=Cn1cc[n+](CC(=O)c2ccc(-c3ccccc3)cc2)c1,-6,-11
CS(=O)(=O)N1N=C(c2ccco2)CC1c1ccc(Br)cc1 (stereo not drawn),-1,-3
CCn1ncnc1C(C)NC(=O)c1ccc(CN2CCCCC2)cc1 (stereo not drawn),11,7
CCS(=O)(=O)N1CCCN(c2nc(Cc3ccc(C)cc3)nc3c2c(C)nn3-c2ccccc2)CC1,-4,1
CC(O)c1ccc(Oc2ccc(Br)cc2)cc1 (stereo not drawn),13,5
CCOC(=O)/C(C#N)=N/Nc1cc(C(N)=O)cc(C(N)=O)c1,-4,-3

Gathered by group, the compounds so far with a carbonyl joined to an NH by a bond outside any ring.
Compound,NPYLR7 agonist,NPYLR7 agonist max-min
COc1cccc2cc(C(N)=O)c(=Nc3ccc(C(N)=O)cc3)oc12,12,8
COc1ccc(OC)c(C2SCCN2C(=O)Nc2ccc(Cl)cc2Cl)c1 (stereo not drawn),19,21
Cc1cc(C)c2c(c1C(=O)NCc1ccc(NC(=O)NC(C)C)cc1)CC(C)(C)C2=O,5,6
CCOC(=O)c1nn(-c2ccc(C)cc2)c(=O)c2c(NC(=O)Cc3ccc(OCC)cc3)scc12,0,-2
CC(C)(C)c1ccc(C(=O)Nc2ccccc2S(C)(=O)=O)cc1,3,7
Cc1c(C(=O)NCc2ccc(C(C)C)cc2)sc(=O)n1Cc1ccc(S(=O)(=O)N(C)C)cc1,-7,-3
COc1ccc(CN(Cc2nc(C(=O)NCCN(C)C)co2)C(C)C)cc1,-10,7
Cc1nccn1CCc1nc2cc(NC(=O)Nc3ccccc3)ccc2n1C,-6,-6
CCn1ncnc1C(C)NC(=O)c1ccc(CN2CCCCC2)cc1 (stereo not drawn),11,7
CCOC(=O)/C(C#N)=N/Nc1cc(C(N)=O)cc(C(N)=O)c1,-4,-3

Other results follow.
Compound,NPYLR7 agonist,NPYLR7 agonist max-min
CCOc1ccc(-n2c(=O)c3ccc(Cl)cc3n(CC(=O)NCc3cccnc3)c2=O)cc1,1,5
COc1cccc(O)c1CN1CCCC(Nc2ccc(C(C)C)cc2)C1 (stereo not drawn),8,4
CCOC(=O)c1cc(-c2cccc(OC)c2)n(-c2ccc(C(=O)NC3CC3)cc2)n1,3,1
COc1ccc2nc(NC(=O)/C=C/c3ccccc3)sc2c1,-3,-5
O=C(Nc1ccc(C(F)(F)F)[nH]c1=O)c1ccccc1,3,3
O=C(C=Cc1cccc(Br)c1)N(Cc1nnc(-c2ccc(Cl)cc2)o1)C1CC1,1,0
CC(=O)c1nnc2c(-c3ccc(Cl)cc3)c(C)nn2c1C,-11,-16
Cc1noc(-c2ccccc2Cl)c1C(=O)N[C@H]1CCC[C@@H]1OCc1ccccc1,3,7

Next part.
Compound,NPYLR7 agonist,NPYLR7 agonist max-min
CCN(CC)c1ccc(/C=C2\C(=O)N(c3ccc([N+](=O)[O-])cc3)N=C2N2CCOCC2)cc1,13,13
O=C(N=Nc1c(O)[nH]c2ccc(F)cc12)c1ccccc1,-5,-9
O=C(CN1CCc2ccccc2C1)N1N=C(c2ccccc2F)CC1c1ccc(Cl)cc1 (stereo not drawn),15,14
Cc1noc(C)c1CNC(=O)c1cc2c([nH]c1=O)CCCC2,1,-3
COc1cc(-c2ccc(=O)n(CC(=O)Nc3ccc(C)c(Cl)c3)n2)cc(OC)c1OC,16,12
COc1cc(OC)cc(C(=O)N2CCN(c3ccc(C)c(Cl)c3)C(=O)C2C)c1 (stereo not drawn),5,4
O=C(NC(C(=O)N/N=C\c1sc2ccccc2c1Br)c1n[nH]c(=O)c2ccccc12)c1ccccc1 (stereo not drawn),-1,9
CC1(C(=O)NS(=O)(=O)c2cccs2)CCN1C(=O)c1ccccc1 (stereo not drawn),1,2

Remaining list, next part
Compound,NPYLR7 agonist,NPYLR7 agonist max-min
NC(=O)Cc1cccc(C(=O)c2ccccc2)c1N,3,-5
COCCN1C(=O)NC(Cc2ccccc2Cl)(C2CCN(C(=O)/C=C/c3ccccn3)CC2)C1=O (stereo not drawn),17,4
COc1ccccc1C1=NN(C(=O)CCC(=O)O)C(c2cccc(Cl)c2)C1 (stereo not drawn),3,-2
CSc1ccc(C(NS(=O)(=O)c2cccc(C)c2)c2cccc(Cl)c2Cl)cc1 (stereo not drawn),-5,-14
CCCCN(C(C)=O)c1c(CC)nc2ccc(C(=O)N3CCN(C(=O)c4ccco4)CC3)cn12,-12,-13
COCCCN(CC(=O)N(Cc1cccn1Cc1ccc(F)cc1)C1CCCCC1)C(=O)c1ccc([N+](=O)[O-])cc1,-3,-5
O=C1CSc2ccc(C(=O)NCCc3ccc(F)cc3)cc2N1,-7,-10
COc1cccc(COC(CN2CCN(S(=O)(=O)c3cccc(OC(F)F)c3)CC2)c2ccc(Cl)cc2)c1 (stereo not drawn),19,17

Some of the entries so far, with two lines to a compound:
Each structure is followed by: NPYLR7 agonist, NPYLR7 agonist max-min
COc1ccccc1C1=NN(C(=O)CCC(=O)O)C(c2cccc(Cl)c2)C1 (stereo not drawn)
 : 3, -2
CSc1ccc(C(NS(=O)(=O)c2cccc(C)c2)c2cccc(Cl)c2Cl)cc1 (stereo not drawn)
 : -5, -14

Other entries:
Compound,NPYLR7 agonist,NPYLR7 agonist max-min
CC1CCCC(C)N1C(=O)CN1Cc2ccccc2CC1C(=O)NCCc1ccc(F)cc1 (stereo not drawn),7,5
COc1ccc(-n2c(SCCCCC(=O)N3CCN(C(=O)c4cc(Cl)cc(Cl)c4)C(C)C3)nnc2-c2ccco2)cc1 (stereo not drawn),-14,-9
CCOC(=O)C1=C(CC)NC2=C(C(=O)CCC2)C1c1ccc(OC)c(Br)c1 (stereo not drawn),3,2
O=C(C1CCN(c2nccc(C(F)(F)F)n2)CC1)N1CCN(Cc2cc(=O)c(OCc3cccc(F)c3)co2)CC1,30,18
Cc1ccc(C)c(NC(=O)Cn2nnc(C(=O)Nc3ccc(C)c(C)c3)c2N)c1,-5,-12
Cc1ccccc1COC1CCCN(C(=O)c2ccc3c(c2)OCO3)C1 (stereo not drawn),-3,2
CC(C)Oc1ccc(C(O)=C2C(=O)C(=O)N(Cc3cccnc3)C2c2cccs2)cc1 (stereo not drawn),-2,-7
CC(=O)N1CCN(C(=O)c2cccc(Nc3c(Oc4cccc(C)c4)cnn(-c4ccccc4Cl)c3=O)c2)CC1,9,14

More records.
Compound,NPYLR7 agonist,NPYLR7 agonist max-min
Cc1ccc(C(C)C)c(OCCCn2c(CO)nc3ccccc32)c1,-11,-10
CC1COC(c2ccccc2)CN1C(=O)c1cccnc1Cl (stereo not drawn),1,11
O=C(NC(c1ccc(F)cc1)c1ccccn1)C1CCN(Cc2ccccc2)CC1 (stereo not drawn),18,7
O=C(c1cnn2c(C(F)(F)F)cc(-c3ccc(Br)cc3)nc12)N(Cc1ccccc1)c1ccccc1,8,5
CCc1ccc(C2C(C(=O)Nc3ccccc3)C(C)Nc3ncnn32)cc1 (stereo not drawn),0,-2
O=C(c1ccc(=O)[nH]c1)N1CCc2onc(-c3cccc4ccccc34)c2C1,15,12
CC1(C)[C@H]2CC[C@@H](CNC(=O)c3ccc(N4CCNC(c5ccccc5)C4)nc3)[C@@H]1C2 (stereo partly drawn),0,0
COCCCN1CC23C=CC(O2)C(C(=O)OC)C3C1=O (stereo not drawn),5,2

Other compounds follow.
Compound,NPYLR7 agonist,NPYLR7 agonist max-min
CCc1nc2c(OCCOc3ccccc3)cccn2c1N(C)C(=O)c1ccccc1F,16,14
O=C(NCCOc1ccc(Cl)cn1)Nc1nccs1,11,9
CC(OC(=O)c1cccc2c1OCCO2)c1nc2ccccc2[nH]1 (stereo not drawn),0,507
O=C(Cn1cncn1)NN=Cc1ccco1,2,3
C=CCN1CCC(CNC(=O)CC23CC4CC(CC(C4)C2)C3)C1 (stereo not drawn),5,-5
CCn1cc(S(=O)(=O)N2CCC(Cc3cccc(C(=O)O)c3)C2)cn1 (stereo not drawn),-3,-9
COc1ccccc1-c1cc(C(=O)NCCCN2CCCCC2C)n2nc(-c3ccccc3)cc2n1 (stereo not drawn),5&18,10&23
O=C(CSc1nnc(-c2ccncc2)n1-c1cccc(C(F)(F)F)c1)NCc1ccccc1,-1,12

(more compounds)
Compound,NPYLR7 agonist,NPYLR7 agonist max-min
CCOCCOC(=NCCCOC)NC(=O)c1cccs1,11,13
Cn1ccnc1CNc1nccc(-c2cnn(-c3ccc(F)cc3)c2)n1,-8,-8
O=C(c1cc(Cl)c[nH]1)N1CCS(=O)(=O)CC1,3,2
CC(Sc1ccccc1)C(=O)NCCN1C(=O)SC(=Cc2ccc3c(c2)OCO3)C1=O (stereo not drawn),2,9
CC1CCCN(C(=O)CSCc2cc(-c3cccs3)on2)CC1 (stereo not drawn),7,5
COC(C)(C)CC(C)NCc1nc2ccc(Cl)cc2[nH]1 (stereo not drawn),6,3
CC1(C)O[C@H]2OC3C(CCCN4C(=O)[C@H](Oc5ccccc5)[C@H]34)[C@H]2O1 (stereo partly drawn),-6,-6
Cc1nc(COc2ccccc2C(=O)OCC(=O)Nc2ccc(N=Nc3ccccc3)cc2)no1,2,-2

Additional records follow:
Compound,NPYLR7 agonist,NPYLR7 agonist max-min
CCCCC(=O)C1=C(O)C(C(=O)OC)C(c2ccccc2)CC1=O (stereo not drawn),-4,-4
Cc1nc2c(c(N3CCCC3)n1)CCN(C(=O)CCc1cc(=O)[nH]o1)C2,4,1
O=C(OCc1nnnn1C1CC1)C1CC1c1ccco1 (stereo not drawn),-3,-5
Cc1onc(-c2c(Cl)cccc2Cl)c1C(=O)N1CCN(c2nc3nccc(C(C)(C)C)n3n2)CC1,4,1
Cc1ccc(-c2cc(C(=O)Nc3cccc(S(=O)(=O)N(C)C)c3)c3cnn(C(C)C)c3n2)s1,14,5
CCOC(=O)N1CCC(NC(c2ccncc2)c2ccc(C)cc2)CC1 (stereo not drawn),18,10
COC(=O)c1ccc(S(=O)(=O)NCCc2nc(C)cs2)o1,5,0
COc1ccc(CCCNC(=O)c2ccc(N(C)C)nc2)cc1,-1,-6

Continuation.
Compound,NPYLR7 agonist,NPYLR7 agonist max-min
COc1ccc(Cc2[nH]n3c(=O)cc(C)nc3c2-c2ccccc2)cc1,-6,-7
COc1ccc(OC)c(-c2c[n+](=O)c3c(n2[O-])CCCC3)c1,7,12
COCCNC(=O)CCc1nnc(-c2ccc(S(C)(=O)=O)cc2)[nH]c1=O,6,5
CCc1ccc(CCC(=O)NCCN2C(=O)SC(=Cc3ccc4c(c3)OCO4)C2=O)cc1,7,11
Cc1nn(-c2ccccc2)c(C)c1NC(=O)C1CC2CCCC(C1)C2=O (stereo not drawn),12,13
